Assay outcomes as filed in PubChem BioAssay.
SARS PLpro yeast: inhibitors of SARS-CoV papain-like protease in yeast; S. cerevisiae expressing SARS-CoV PLpro, growth rescue; control for the full effect not named in the record; Potency, µM (titrated, usually from 32.9 µM), without a hit: top-dose activity, positive = growth rescue; actives 0.19% (n = 330,000); active means well fitted rising curve with a large enough effect; inconclusive means small, poorly fitted or top-dose-only effect; inactive means no such curve, though single readings can be large or run the other way; also: 0% is about no effect; nearly all actives have a fitted effect of over 55% in size; growth read by luminescence after 48 h
2A StopGo: FMDV 2A StopGo reporter, luciferase signal; human cells with a luciferase reporter of 2A StopGo recoding; control for the full effect not named in the record; Potency, µM (top dose mostly 57.9 µM), for the others: at the highest dose signal change, negative = less light; actives 1.2% (n = 410,000); AID 1159524; active = well fitted falling curve with a large enough effect; inconclusive = small, poorly fitted or top-dose-only effect; inactive = no such curve, though single readings can be large or run the other way; tested in HEK293T cells; also: % is scaled to controls: 0 for no effect and ±100 for the full control effect; nearly all actives have a fitted effect of over 45% in size; luciferase light after 4 h
Cruzain Triton: inhibitors of Trypanosoma cruzi cruzain with detergent. P25779. purified cruzain, Z-FR-AMC fluorescence, 0.01% Triton. Potency, µM, for the others: max response, negative = inhibition, hits mostly inhibitors. actives 0.43% (n = 200,000);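 also: plate controls were neutral wells for no effect and buffer without enzyme for full effect; nearly all actives have a fitted effect of over 40% in size; top concentration of the series not given in the record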
Target sequence (P25779 123-467 limits assumed): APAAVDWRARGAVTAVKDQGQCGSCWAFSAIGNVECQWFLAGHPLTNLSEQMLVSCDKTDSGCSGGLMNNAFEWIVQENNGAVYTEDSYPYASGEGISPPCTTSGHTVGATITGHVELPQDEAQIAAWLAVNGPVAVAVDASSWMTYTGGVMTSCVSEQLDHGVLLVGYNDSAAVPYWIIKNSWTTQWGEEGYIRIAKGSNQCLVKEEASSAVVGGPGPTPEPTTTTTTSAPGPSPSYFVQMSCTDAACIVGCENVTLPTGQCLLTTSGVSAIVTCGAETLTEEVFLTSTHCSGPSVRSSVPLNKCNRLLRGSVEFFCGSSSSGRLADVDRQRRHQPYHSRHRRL
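Steps: dispense cruzain (1.5 nM final) in acetate buffer pH 5.5 with DTT and 0.01% Triton X-100; pin-transfer compounds; incubate 15 min RT; add Z-FR-AMC (2 uM final); read fluorescence every 30 s, using the 60 s intensity change.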
Cruzain inh noDet: cruzain (T. cruzi) inhibition without detergent; AID 1476; Potency, µM, for the others: max response, negative = inhibition, hits mostly inhibitors; P25779; actives 2.3% (n = 200,000); purified cruzain, Z-FR-AMC fluorescence, no detergent;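 also: plate controls were enzyme without inhibitor for no effect and buffer without enzyme for full effect; nearly all actives have a fitted effect of over 40% in size; top concentration of the series not given in the record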
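Detergent-free condition (0.00005% Triton X-100) in acetate buffer pH 5.5 with DTT. 1.5 nM enzyme and compound were pre-mixed 15 min, then 2 uM Z-FR-AMC substrate added; reaction progress from fluorescence change between first and third reads (60 s).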
RE007 growth inh: less growth of the S. pombe RE007 Vpr strain. S. pombe RE007 Vpr strain, BacTiter-Glo ATP luminescence, 24 h; control for the full effect not named in the record. AID 651644. Potency, µM (doses to about 92.2 µM), for inactives: at the highest dose activity change, negative = less growth. actives 0.21% (n = 360,000); active = well fitted falling curve with a large enough effect; inconclusive = small, poorly fitted or top-dose-only effect; inactive = no such curve, though single readings can be large or run the other way;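 also: % is scaled to controls: 0 for no effect and ±100 for the full control effect; nearly all actives have a fitted effect of over 50% in size; the assay follows cell death caused by Vpr and the record does not say whether a fall means rescue or toxicity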
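Fission yeast RE007 carrying one integrated HIV-1 vpr copy, seeded at OD 0.01 in PMG+AL medium with 23 nL pinned compound. Grown 24 h at 30 degrees; viability read by BacTiter-Glo luminescence after 5 min.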
NS1 inh: blocks influenza NS1 protein function; AID 2326; S. cerevisiae slowed by influenza A NS1, growth recovery by OD600; Potency, µM (series often up to 46.1 µM), for the others: at the highest dose activity, positive = more growth; actives 0.4% (n = 270,000); active means well fitted rising curve with a large enough effect; inconclusive means small, poorly fitted or top-dose-only effect; inactive means no such curve, though single readings can be large or run the other way; also: nearly all actives have a fitted effect of over 50% in size
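In this qHTS, NS1 from influenza A is expressed in budding yeast, where it slows growth. Cells are switched from glucose to 2% galactose medium (pH 6.0, -URA), treated with compound, and growth recovery is read at OD600.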
MARV entry inh: blocks Marburg virus binding to or entry into cells; Potency, µM (highest dose often 37.8 µM), for inactives: top-dose activity change, negative = inhibition, most hits filed as inhibitors; actives 1.8% (n = 300,000); Marburg virus pseudotyped entry inhibition, cell reporter; control for the full effect not named in the record; about a third of the inactives were read at about 46 µM; AID 540276; active = well fitted inhibition curve with a large enough effect; inconclusive = small, poorly fitted or top-dose-only effect, or effect the other way; inactive = flat fitted curve, though single readings scatter; tested in HEK293 cells; about a fifth of its hits are not listed in these tables; also: % is scaled to controls: 0 for no effect and ±100 for the full control effect; luciferase read-out
LASV entry inh: blocks Lassa virus binding to or entry into cells | AID 540256 | actives 1.2% (n = 300,000) | Potency, µM (titrated, usually from 37.9 µM), for the others: at the highest dose activity change, negative = inhibition, most hits filed as inhibitors | Lassa virus pseudotype entry inhibition, cell reporter; control for the full effect not named in the record; active means well fitted inhibition curve with a large enough effect; inconclusive means small, poorly fitted or top-dose-only effect, or effect the other way; inactive means flat fitted curve, though single readings scatter; tested in HEK293 cells; also: % is scaled to controls: 0 for no effect and ±100 for the full control effect; nearly all actives have a fitted effect of over 50% in size; luciferase read-out
* marks the source's active call; other numbers are inactive results; ? = inconclusive; . = no result given; & = joins results of further samples; [ ] = remark or other dose. Unless noted, calls follow the shape of the dose curve; as a rule, active = well fitted curve in the direction sought with a large enough effect; inconclusive = small, poorly fitted or top-dose-only effect, or another doubt; inactive = no such curve, though single readings can be large; an effect the other way counts as inactive or inconclusive. Potency is read from the fitted curve at half-maximal effect.

SMILES | SARS PLpro yeast | 2A StopGo | Cruzain Triton | Cruzain inh noDet | RE007 growth inh | NS1 inh | MARV entry inh | LASV entry inh
O=C(COc1ccc(S(=O)(=O)NCc2ccccc2)cc1)NCC1CCCO1 (stereo not drawn) | 12% | 19% | 3.9% | -5% | 11% | -8% | 0% | 7%
Cc1oc(-c2ccccc2)cc1C(=O)Nc1cccc2ccccc12 | -2% | 0% | -8.7% | -15% | ? | -83% | -4% | ?
COC(CNC(=O)C1CCCCC1C(=O)O)OC (stereo not drawn) | 24% | -1% | -0.8% | -4% | -2% | 5% | ? | 1%
CCOc1ccc2ccccc2c1/C=N/NC(=O)CNC(=O)c1ccccc1O | -3% | -3% | . | . | -17% | -1% | ? | 3%[46.1 µM]
O=C(Nc1ccc(N2CCN(C(=O)c3ccccc3)CC2)cc1)c1cccnc1 | -4% | -2% | . | . | 3% | -3% | ? | .
CC(C)Cc1ccc(C(C)NC(=O)Cc2ccc(S(=O)(=O)N3CCOCC3)s2)cc1 (stereo not drawn) | 4% | -19% | . | . | -7% | . | ? | ?
Cc1ccc(NC(=O)COc2cccc(-n3cnnn3)c2)cc1[N+](=O)[O-] | 3% | -8% | . | . | -14% | 9% | -14%[46.1 µM] | 1%[46.1 µM]
Cc1ccccc1-n1c(SCC(=O)Nc2cccc3ccccc23)nc(O)cc1=O | 1% | 7% | . | . | -1% | 7% | -14%[46.1 µM] | -1%[46.1 µM]
CC(=O)NC(NC(C)=O)c1ccc(Br)cc1 | 0% | -6% | 5.1% | -7% | 30% | -12% | 7% | 18%
CC1=CC(C2CC(=O)N(c3ccc(C)cc3)C2=O)CC2C(=O)N(c3ccc(C)cc3)C(=O)C12 (stereo not drawn) | 0% | ? | . | . | 15% | -1% | -27%[46.1 µM] | -2%
Cc1ccc(NC(=O)CN(C)C(=O)CCC(=O)c2cccs2)cc1 | -16% | 27% | -3.3% | -12% | 18% | 4% | -21% | -2%
CCn1c(SCC(=O)Nc2cccc(OC)c2)nnc1-c1ccc(Cl)cc1 | -7% | -21% | -2.8% | 5% | -9% | -6% | -25% | -34%[14.3 µM]
O=[N+]([O-])c1cc(S(=O)(=O)C(F)(F)F)ccc1Sc1nc2ccccc2[nH]1 | -23% | ? | -2.5% | -3% | -8% | 3% | ? | ?
CCC(C)NC(=O)c1ccccc1SC (stereo not drawn) | 0% | -2% | . | . | -13% | 1% | -1%[46.1 µM] | .
CCOC(=O)C1=C(CN2CCN(c3ccc(OC)cc3)CC2)NC(=O)NC1c1ccc(Cl)cc1 (stereo not drawn) | . | 0% | -5.8% | -14% | . | . | ? | ?
CC(OC(=O)Cc1coc2cc3c(cc12)CCC3)C(=O)NCc1ccc2c(c1)OCO2 (stereo not drawn) | -10% | -16% | -3.4% | 3% | 6% | -3% | -5% | -24%
CCCOc1cccc(C(=O)NC(=S)Nc2cccc(NC(=O)c3ccccc3Cl)c2)c1 | -5% | -20% | -4.3% | ? | 10% | ? | -22% | ?
CCOC(=O)c1ccc(NC(=O)c2nc[nH]c2C(=O)N[C@H](C)c2ccccc2)cc1 | 0% | -4% | . | . | 5% | 19% | . | .
CCc1ccc(-c2nc(CN3CCCC(C(=O)N4CCN(c5cc(Cl)ccc5C)CC4)C3)c(C)o2)cc1 (stereo not drawn) | . | ? | -1.4% | 18% | . | . | ? | ?
COc1cc(OC)cc(C(=O)NCC(=O)OCC(=O)NC2CCCc3ccccc32)c1 (stereo not drawn) | 7% | -9% | . | . | 1% | . | 3% | 2%
CC1CN(Cc2c(O)ccc3c(=O)c(-c4ccccc4)coc23)CC(C)O1 (stereo not drawn) | 0% | -19% | . | . | 5% | -2% | -13%[46.1 µM] | -28%
O=C(Nc1nnc(C2CC2)s1)c1cc(S(=O)(=O)N2CCCCC2)ccc1N1CCOCC1 | 1% | -12% | . | . | 7% | -7% | . | .
CCn1c(SCc2nnc(-c3ccccc3)o2)nnc1-c1ccc(S(=O)(=O)N2CCCC2)cc1 | -2% | 0% | 2.3% | 8% | -3% | -1% | -3%&-3% | 18%
FC(F)(F)c1ccc(Oc2ccc(Cl)cc2Br)nc1 | 1% | -19% | . | . | -12% | . | 28%[46.1 µM] | -10%
COc1ccc(/C(C)=N/NC(=O)c2nnn(-c3nonc3N)c2-c2cccs2)cc1 | 0% | ? | . | . | -13% | -1% | -2%[46.1 µM] | 2%[46.1 µM]
O=C(O)COc1ccc(Br)cc1/C=N\Nc1ccccn1 | 7% | -11% | . | . | 1% | 1% | 0%[46.1 µM] | 20%[46.1 µM]
O=c1cc(CSc2ccc(Cl)cc2)nc(-c2ccccc2)[nH]1 | -3% | -26% | . | . | 12% | . | 6%[46.1 µM] | 22%
CC(=O)c1ccc(NS(=O)(=O)c2ccc(N)cc2)cc1 | 1% | 108%[activator] | . | . | -10% | 12% | -13%[14.2 µM] | 0%
CC1=C(C(=O)N2CCCCC2)C2(CCC(C)CC2)OC1=O (stereo not drawn) | 11% | -6% | 3.7% | 4% | -13% | 14% | -10% | 4%
C=CCNC(=S)Nc1ccc(C)c(S(=O)(=O)N2CCCCC2)c1 | -1% | 12% | . | . | 11% | . | -14% | -27%
CN(C)CCCNC(=O)CCc1ncc(C(F)(F)F)cc1Cl | 9% | -19% | . | . | -5% | . | 7%[46.1 µM] | -12%
COCC(C)NC(=O)Cc1ccc(F)cc1 (stereo not drawn) | 23% | -13% | -3.5% | -6% | 8% | 22% | 4% | -4%
O=C(Nc1nnc(-c2ccc(F)cc2)o1)c1ccc(S(=O)(=O)N2CCOCC2)cc1 | -4% | -14% | . | . | 7% | 2% | 7.9µM* | ?
Cc1ccc(S(=O)(=O)n2c([N+](=O)[O-])cnc2C)cc1C | 1% | -11% | . | . | 0% | -6% | 14%[46.1 µM] | 12%
Cc1cccc(CCNC(=O)C2CCN(c3nc4ccccc4nc3C(F)(F)F)CC2)c1 | . | -12% | 2.4% | -5% | . | . | . | 16%[46.1 µM]
COc1ccc(NC(=O)C(C)N(C)Cc2ccc3ccccc3c2)cc1 (stereo not drawn) | -3% | ? | . | . | -6% | -17% | ? | ?
O=C(CCNC(=O)c1ccc(Br)cc1)NNC(=O)COc1ccccc1F | -2% | -2% | . | . | -1% | . | 3% | 24%[46.1 µM]
CCN(CC(=O)NCc1ccc(F)cc1)C(=O)Cc1c(F)cccc1Cl | 3% | 11% | . | . | 11% | 0% | -1%[46.1 µM] | ?
CC(C)c1c(C(=O)N/N=C/c2ccccc2C(=O)O)nnn1-c1nonc1N | 5µM* | 27% | . | . | 0% | -1% | 3%[46.1 µM] | 0%[46.1 µM]
CCOc1ccc2nc(NC(=O)COC)sc2c1 | -4% | -32% | -1.5% | -3% | -3% | -8% | ? | ?
CC(=O)NCCn1ccc2ccccc21 | -3% | -25% | -0.9% | 6% | 11% | -3% | 18% | -4%
CC(C)(C)c1ccc(OCCOCCn2c(-c3ccc(Cl)cc3)nc3ccccc3c2=O)cc1 | . | 0% | 7.9% | -8% | . | . | -24%[46.1 µM] | ?
COc1ccc(-c2nc(-c3ccccc3)c(-c3cc([N+](=O)[O-])ccc3C)[nH]2)cc1O | -22% | -27% | -4.3% | 7% | 7% | 21% | -30% | ?
O=C(Nc1ccccc1C(=O)NCc1cccnc1)c1ccc(Cl)cc1Cl | 6% | -12% | -1.2% | -7% | 12% | -11% | 5% | 0%
O=C(NCc1cccs1)C1CCCN(C(=O)Nc2ccccc2)C1 (stereo not drawn) | -1% | 5% | . | . | 0% | -1% | ? | ?
CCCCn1c(SCn2nnc3ccccc3c2=O)nc2cc(C(=O)OC)ccc2c1=O | 3% | . | 5.7% | 12% | . | -8% | 0% | .
COc1ccc(C2C(C(=O)NCCN3CCOCC3)c3ccccc3C(=O)N2C)cc1OC (stereo not drawn) | 6% | 13% | -0.7% | -7% | 6% | -1% | 16%&16% | 11%
CCNc1nc(NC#N)nc(SCC(=O)OCC)n1 | -1% | -1% | -2.6% | -1% | 2% | -1% | 3% | 7%
COCCCn1c(=O)c2ccccc2n(Cc2ccccc2)c1=O | -4% | -20% | . | . | 4% | -15% | . | .
C=CCn1c(=O)/c(=C/c2ccc(Cl)cc2)s/c1=C(\C#N)c1nnc2n1CCCCC2 | . | ? | . | . | 1% | . | -29% | ?
Cc1cc2c(cc1C)C(c1ccccc1OC(C)C)CC(=O)N2 (stereo not drawn) | -4% | -13% | . | . | 0% | -45% | 1µM* | ?
COc1cc(Br)c(C(C)NC(=O)c2cccc(Br)c2)cc1OC (stereo not drawn) | 1% | -14% | -2.9% | 3% | 14% | -8% | ? | -9%
COc1cccc(C(=O)N2CCN(Cc3ccccn3)CC2)c1 | -1% | 1% | . | . | -3% | 2% | . | .
O=C(c1cc2ccccc2cc1O)N1CCN(c2ccccc2O)CC1 | 26% | -4% | . | . | -22% | . | -15%[46.1 µM] | ?
Cc1nc(-c2cccc(N)c2)cs1 | -8% | 4% | 0.9% | -2% | 1% | -15% | . | .
COc1ccc(CCNC(=O)CN2CCC(C)CC2)cc1OC | 23% | 9% | 1.4% | -8% | 27% | 1% | 13% | 6%
O=C(COC(=O)/C=C/c1ccc2c(c1)OCO2)NC1CC1 | 19% | 0% | -6.6% | -11% | 5% | -28% | 18% | -3%
COc1ccc(N(CC(=O)Nc2ccccc2C(=O)O)S(=O)(=O)c2ccc(C)c([N+](=O)[O-])c2)cc1 | 0% | 12% | . | . | 6% | ? | -23%[14.2 µM] | -18%

Full records as entered above.
Record of `O=C(c1cc2ccccc2cc1O)N1CCN(c2ccccc2O)CC1` → SARS PLpro yeast = 26%; 2A StopGo = -4%; Cruzain Triton = .; Cruzain inh noDet = .; RE007 growth inh = -22%; NS1 inh = .; MARV entry inh = -15%[46.1 µM]; LASV entry inh = ?
Record of `COc1cccc(C(=O)N2CCN(Cc3ccccn3)CC2)c1` → SARS PLpro yeast = -1%; 2A StopGo = 1%; Cruzain Triton = .; Cruzain inh noDet = .; RE007 growth inh = -3%; NS1 inh = 2%; MARV entry inh = .; LASV entry inh = .

Rows are unselected, and some 4.6% of all compounds hit somewhere here.
